Compound activity (PubChem)
Env fusion inh: blocks HIV Env-driven cell-cell fusion; HeLa-JRFL Env/CEM21 cell fusion, luciferase; inhibition, % at 12.3 µM; 1.1% of 360,000 active;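 active = mean replicate inhibition score of at least 50 and every replicate individually at or above 50; inconclusive = only one of the two criteria met; inactive = mean below 50 and not all replicates reaching 50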;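 note: 0% = plate neutral controls and 100% = maraviroc near 300 nM; one replicate is shown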
MT1-MMP act inh: blocks activation of human MT1-MMP. P50281. HT1080 RFP-PRO-GFP cells, GFP/RFP ratio fluorescence, overnight; percent of plate control window, DMSO zero. GFP/RFP ratio change, % at 20 µM. 0.061% of 360,000 active. AID 651647;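 active = GFP/RFP ratio change of at least 30% with cell ATP level not reduced by more than half and red fluorescence within 50% of control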; note: strong numbers were not always called active
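system = RFP-PRO-GFP reporter HT1080 cells | dosing = 20 µM single dose, 1% DMSO | timing = overnight cell settling, then overnight compound exposure, 37 °C, 5% CO2 | read-out basis = GFP/RFP fluorescence ratio | controls = DMSO and RFP-L50D-GFP cell wells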
eIF4H FP inh: inhibitors of RNA binding by human eIF4H. Q15056. eIF4H fluorescence polarization binding assay. inhibition, % at 35 µM. 0.94% of 290,000 active. AID 2012;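 active = 50% or more with normal probe brightness, or confirmed in later tests; inconclusive = above 50% with abnormal brightness, or retests that disagree; inactive = below 50% or failed in later tests; about a fifth of its hits are not listed in these tables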;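 note: calls also rest on retests at 20 µM and on dose response follow-up; 0% = protein and probe with vehicle and 100% = probe without protein; strong numbers were not always called active; many hits fall short of the cut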
PABP FP inh: blocks human PABP binding to poly(A) RNA | inhibition, % at 35 µM | P11940 | fluorescence polarization | 1% of 290,000 active;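 active = 50% or more with normal probe brightness, or confirmed in later tests; inconclusive = above 50% with abnormal brightness, or retests that disagree; inactive = below 50% or failed in later tests; about a fifth of its hits are not listed in these tables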;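 note: calls also rest on retests at 20 µM and on dose response follow-up; controls were probe without protein and protein plus probe with vehicle; some compounds called inactive have numbers as strong as hits; many hits fall short of the cut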
CSC inhib: blocks cancer stem cells | cancer stem cell-like cells viability, luminescence | AID 2717 | 1.1% of 300,000 active | inhibition, % at 7.5 µM;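 active = mean at 75% or more and at least half the replicates too; inconclusive = mean and replicates disagree; tested in HMLE shEcad cells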;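 note: 0% = median of negative and 100% = median of positive control wells; the first replicate is given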
UUG fidelity: modulators of start codon recognition fidelity in yeast; 0.13% of 350,000 active; activity score, % at 18.7 µM; S. cerevisiae UUG-firefly luciferase reporter, luminescence/redox ratio; AID 602363;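 active = replicate mean at a twofold rise or more, about +100% in these data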;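 note: firefly luciferase made from a UUG start codon reports start codon fidelity; reporter light over untreated wells divided by growth signal over untreated wells; some hits fall short of that in this replicate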
Rce1 inh: inhibitors of yeast Ras-converting enzyme; calls only; Q03530; yeast membranes, quenched prenylated peptide cleavage fluorescence; AID 2563; 0.27% of 290,000 active;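 active = fall in fluorescence gain of 50% or more versus controls, with final raw signal at or below 3038400; inconclusive = same 50% fall but final raw signal above 3038400; inactive = fall in fluorescence gain under 50%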;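 note: plate controls were neutral control wells for no effect and wells lacking membranes for full effect; tested at 10 µM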
Target sequence (Q03530 whole entry, looked up): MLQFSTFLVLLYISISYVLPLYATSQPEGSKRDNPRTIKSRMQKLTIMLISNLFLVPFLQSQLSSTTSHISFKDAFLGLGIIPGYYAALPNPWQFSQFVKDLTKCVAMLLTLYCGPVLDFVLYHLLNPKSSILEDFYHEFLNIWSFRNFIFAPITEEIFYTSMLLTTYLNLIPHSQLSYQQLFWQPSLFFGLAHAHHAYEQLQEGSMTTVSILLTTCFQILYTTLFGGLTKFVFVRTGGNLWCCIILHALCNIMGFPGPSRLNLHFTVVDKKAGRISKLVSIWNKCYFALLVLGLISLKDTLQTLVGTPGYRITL
MT1-MMP act inh RFP: also measured in MT1-MMP act inh; calls as there; RFP signal change, %; measured here: RFP expression control read;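 0 = vehicle wells; hits needed this value within 50% of zero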
Starred values were filed as active, the others as inactive; i = inactive; ? = inconclusive; . = no result given; & = joins results of further samples.

SMILES	Env fusion inh	MT1-MMP act inh	MT1-MMP act inh RFP	eIF4H FP inh	PABP FP inh	CSC inhib	UUG fidelity	Rce1 inh
O=C(CSc1nccn(-c2ccc3c(c2)OCCO3)c1=O)Nc1ccccc1	-41	0	2	.	.	-2	.	i
Cc1cc(N2CCN(C(=O)c3ccco3)CC2)n2nc(C)nc2n1	-36	1	3	9	6	23	-9	i
Cc1cc(Cl)n2ncc(-c3ccccc3)c2n1	-96	5	-2	-5	5	-2	-19	i
C=CCNC(=O)C1COc2ccccc2O1 (stereo unspecified)	4	0	0	0	4	-5	-23	i
Cc1cc2oc3cc(NCCC4CCCN4C)ccc3c(=O)c2cc1C (stereo unspecified)	-129	7	3	.	.	103*	4	i
CCCn1c(N)c(N(CCOC)C(=O)c2c(CC)noc2C)c(=O)[nH]c1=O	-18	0	1	.	.	.	-19	.
Cc1occc1C(=O)Nc1cnn(CCCC(=O)O)c1	4	-1	2	9	10	-29	14	i
CCC(=O)c1ccc(OCc2cn(CC(=O)c3ccc(O)cc3)nn2)cc1	-7	0	2	.	.	.	81	.
CN(CC(=O)Nc1ccc(Cl)c(C(F)(F)F)c1)C(=O)c1cccc(N2C(=O)CCC2=O)c1	.	2	-8	.	.	8	8	.
O=C1Nc2ccccc2C(=O)N2C[C@@H](O)C[C@H]12	-6	3	7	-2	-8	-15	-8	i
O=S1(=O)C[C@H](N2CCOCC2)[C@@H](COCc2ccccc2)N1	-11	2	5	.	.	.	-2	.
N=c1ccn(Cc2ccccc2Cl)cc1	.	-1	-12	-1	-10	-17	7	i
COc1ccc(N(CC(=O)NCc2ccccc2Cl)S(=O)(=O)c2c(C)noc2C)cc1	5	0	-5	-6	18	-31	-3	i
O=C(Nc1ccc(S(=O)(=O)Nc2nccs2)cc1)C1CC(=O)N(c2ccccc2)C1 (stereo unspecified)	.	-2	4	-4	-4	-7	.	i
O=C(c1ccc(Cl)cc1[N+](=O)[O-])N1CCOCC1	9	-2	-2	-4	-8	.	-21	i
COc1ccccc1Nc1ccc2nonc2c1[N+](=O)[O-]	-92	10	-1	-2	-1	6	-5	i
Fc1ccc(OCc2nc(-c3ccncc3)n[nH]2)cc1	8	3	1	12	22	-2	.	i
COc1ccc(CN(C)CCCn2cnc(C(=O)Nc3ccc(C)c(C)c3)n2)cc1OC	-7	2	3	.	.	.	-15	.
COc1cccc(OCCCn2ccnc2)c1	-2	-2	0	-8	-2	-16	-9	i
CCCNC(=O)C1(C)CCCN(Cc2cc(-c3ccccc3)nn2C)C1 (stereo unspecified)	38	-4	-1	.	.	.	-1	.
COCCN(C(=O)CSc1nc2ccccc2o1)c1c(N)n(Cc2ccccc2)c(=O)[nH]c1=O	.	-2	-1	.	.	-29	-7	.
CC(C)Cn1c(=O)c2ccccc2n2c(CCC(=O)NC3CCN(Cc4ccccc4)CC3)nnc12	-4	-3	0	.	.	1	-3	i
Cc1nnc(NC(=O)c2oc3ccccc3c2C)s1	-60	4	7	7	12	-5	-23	i
CCn1cc(C(=O)OCC(=O)Nc2cccc(S(=O)(=O)N3CCOCC3)c2)c(=O)c2ccc(C)nc21	7	22	1	-10	-5	-2	15	i
O=C(Nc1ncccn1)c1cccc(Cl)c1	7	-1	0	.	.	-14	-16	i

Further records follow.
SMILES	Env fusion inh	MT1-MMP act inh	MT1-MMP act inh RFP	eIF4H FP inh	PABP FP inh	CSC inhib	UUG fidelity	Rce1 inh
Cc1ccc(NCc2nnc(SCC(=O)NCCc3ccccc3)n2C)cc1	.	11	0	-1	1	.	.	i
NNC(=O)CN1C(c2ccc(Cl)cc2)=Nc2ccc(Br)cc2C1c1ccccc1 (stereo unspecified)	62	-4	-1	11	-7	11	.	.
C[C@H]1CN([C@@H](C)CO)C(=O)CCCn2nncc2CO[C@@H]1CN(C)Cc1cccc2c1OCCCO2	?	7	7	.	.	.	-16&5	.
COCc1ccc(CN2CCCC(C(=O)Nc3ccccc3-c3ccc(OC)cc3)C2)o1 (stereo unspecified)	32	-4	-1	2	7	10	-15	i
Cc1cc(NC(=O)CSc2nc3c(c(=O)n2-c2ccc(Cl)cc2)SCC3)no1	-2	28	-3	.	.	-6	4	i
Cc1ccc(-c2nc(CN(C)C)cc(CN(C)C)c2O)cc1	-16	-6	-1	-3	39	-1	-22	.
COc1cccc(-c2cc(C(=O)O)c3cc4ccccc4cc3n2)c1OC	11	-3	3	.	.	.	-17	.
Cc1ccc(N(CCC#N)C(=O)COC(=O)c2cc(C)oc2C)cc1	3	-2	-3	.	.	-14	1	.
CCOC(=O)C1=C(C)NC(=O)NC1c1cc2c(cc1Br)OCO2 (stereo unspecified)	.	-1	3	1	6	0	-10	i
COc1ccc(OC)c(NC(=O)NNC(=O)c2cc3occc3[nH]2)c1	0	1	-3	-3	2	-11	-9	i
CC(=O)c1ccccc1C(=O)N(C)C1CCCN(Cc2ccccc2F)C1 (stereo unspecified)	12	-3	-3	-7	3	4	6	i
CCOC(=O)C1CCCN(C(=O)C2CCN(S(=O)(=O)c3c(C)noc3/C=C/c3ccccc3F)CC2)C1 (stereo unspecified)	-4	3	-3	-16	-9	5	-11	i
CCOC(=O)c1c(C)[nH]c(O)c1C=Nc1ccc(C(F)(F)F)cc1	-90	-53	19	-8	11	-6	-3	i
NC(=O)c1ccsc1NC(=O)CCS(=O)(=O)c1ccccc1	-1	-2	-2	-6	6	-11	.	i
O=C(NCC(=O)N1CCN(S(=O)(=O)c2ccccc2F)CC1)c1ccc2c(c1)OCO2	24	2	-3	.	.	-1	-7	i
CC(C)(C)NC(=S)NC(=O)C12CCC3CC(CC(C3)C1)C2	-1	-12	-16	-5	-3	46	.	i
Cc1ccc(S(=O)(=O)Nc2ccc(F)cc2)cc1C(=O)N1CCOCC1	-6	-1	0	.	.	-11	-12	.
COC(=O)C1=C(C)C(c2ccc(OC)cc2)NC(=S)N1 (stereo unspecified)	-41	0	2	-4	-10	1	-22	i
CCC(=O)N1CCC1(C)C(=O)Nc1cccc(OC)c1 (stereo unspecified)	-16	-1	2	.	.	.	-11	.
FC(F)(F)c1cccc(OCCOCCn2cncn2)c1	-13	-2	2	-4	17	-1	-10	i
Cn1c(=O)cc(OCC(=O)N2CCC(N3CCCCC3)CC2)c2ccccc21	15	2	9	-4	9	1	10	i
CC(=O)c1cnc2c(-c3ccc(Cl)cc3)cnn2c1C	i	.	.	4	-4	2	-10	.
O=C(CSc1ccc(Cl)cc1Cl)N1CCC(c2nc3ccccc3s2)CC1	.	0	-7	-9	-2	13	8	i
O=c1cc(-c2ccccc2)c2cc(Cl)c(O)c(CN3CCOCC3)c2o1	8	-1	1	-3	1	5	6	i
O=S1(=O)N=C(N2CCN(Cc3ccc4c(c3)OCO4)CC2)c2ccccc21	.	-5	0	8	-2	-1	-4	i

Remaining list, next part:
SMILES	Env fusion inh	MT1-MMP act inh	MT1-MMP act inh RFP	eIF4H FP inh	PABP FP inh	CSC inhib	UUG fidelity	Rce1 inh
CCN(Cc1ccccc1)C(=O)CSc1n[nH]c(N)n1	9	6	1	-9	4	-1	-15	i
O=C(CSc1nnnn1CCCO)Nc1ccc2c(c1)OCO2	-5	-3	-1	-6	-7	-16	.	i
CCN(CC)S(=O)(=O)c1ccc(N2CC(C(=O)NCc3cccnc3)CC2=O)cc1 (stereo unspecified)	-11	1	4	0	-8	-3	-5	i
COc1ccccc1-c1cc2nc(C)c(CCC(=O)NCc3ccco3)c(C)n2n1	7	33	58	4	2	-7	-34	i
O=C(c1ccc(=O)[nH]n1)N1CCN(S(=O)(=O)c2ccc(C(F)(F)F)cc2)CC1	-2	1	1	.	.	.	-6	.
O=C(COC(=O)c1cc(S(=O)(=O)N2CCCCC2)ccc1Cl)NC1CCCCC1	25	2	2	.	.	.	7	.
OC(c1ccccc1)C(CN1CCOCC1)c1ccccc1 (stereo unspecified)	5	-3	0	-7	-11	0	.	i
Cc1cc(F)cc(C)c1Cn1cnc2c(cnn2C(C)(C)C)c1=O	24	6	-11	.	.	.	-2	.
Cc1ccnc(NS(=O)(=O)c2ccc(NC(=O)C3CCCCC3C(=O)O)cc2)n1 (stereo unspecified)	.	1	-2	5	15	-4	-10	i
CSc1ccc(C2=CC(=O)C[C@H](c3ccc4c(c3)OCO4)C2)cc1	-27	2	-3	.	.	14	10	.
Cc1cc(C)cc(NC(=O)c2ccc(NC(=O)C3C4CC5OC(=O)C3C5C4)cc2)c1 (stereo unspecified)	14	2	-6	-5	-8	0	.	i
CCOc1ccccc1C1CC(c2ccc(Cl)cc2)Nc2nc(N)nn21 (stereo unspecified)	-10	4	1	1	3	5	-13	i
CN(CC(=O)Nc1c(Cl)cccc1Cl)C(=O)c1ccc2ccccc2n1	-5	-3	2	.	.	.	-23	.
Cc1cccc(C)c1NC(=O)C(=O)NCCc1c[nH]c2ccccc12	29	-3	-2	-2	1	-18	-9	i
Cc1ccc(CN2C(=O)C(C)Nc3ncnc(N4CCOCC4)c32)cc1 (stereo unspecified)	-19	-4	2	.	.	-5	-18	i
O=C(O)c1cccc(Nc2c3ccccc3nc3ccccc23)c1	1	8	-13	4	8	9	-25	i
CC1CC(C)CN(S(=O)(=O)c2ccc(C(=O)OCC(=O)NCCN3C(=O)CSC3=O)cc2)C1 (stereo unspecified)	-47	0	4	-8	-6	-4	.	i
Cc1ccc2nc(SCCC(=O)O)cc(C)c2c1	.	7	7	-6	8	-21	.	i
CN(C)S(=O)(=O)c1ccc(C(=O)OCc2ccc([N+](=O)[O-])cc2)cc1	8	0	6	-12	0	-11	.	i
Cc1ccc(C(=O)N/N=C/c2nc3ccccc3n2C)cc1	-7	9	-4	-1	-9	7	-36	i
Cc1ccc(NC(=O)c2ccc(COc3ccc4c(c3)CCC4)cc2)c(C)c1	-136	-7	-14	-12	-6	4	.	i
O=C(c1ccc(CS(=O)(=O)c2c(Cl)cccc2Cl)o1)N1CCCC1	-1	1	6	-4	2	-10	-4	i
CCc1nn(CC(=O)NCCCN2CCN(C)CC2)c(=O)c2cc3sccc3n12	6	-1	-1	-1	1	-8	-21	i
Cc1ccc(C(=O)CN2C(=O)NC3(CCCCCC3)C2=O)c(C)c1	-54	3	0	.	.	6	.	i
C(=N\c1nc2ccccc2n1Cc1ccccc1)/c1cccs1	.	5	0	-8	0	-1	-5	i

Carrying on:
SMILES	Env fusion inh	MT1-MMP act inh	MT1-MMP act inh RFP	eIF4H FP inh	PABP FP inh	CSC inhib	UUG fidelity	Rce1 inh
CC(=O)NC1=NN(C(C)=O)C(c2ccc(C)cc2)S1 (stereo unspecified)	0	4	2	6	-1	5	-9	i
COc1cccc(C2=NOC(C(=O)Nc3ccc4c(c3)OCO4)C2)c1 (stereo unspecified)	14	6	3	5	-4	-5	.	i
O=C1C2C(c3ccccc3)C=CC(c3ccccc3)C2C(=O)N1CCO (stereo unspecified)	.	4	0	-1	-3	3	-3	i
Fc1ccc(NC(=S)Nc2ccccc2Cl)cc1	2	6	6	10	2	-6	1	i
O=C1c2cccc3cc([N+](=O)[O-])cc(c23)C(=O)N1c1nncs1	7	-7	3	.	.	1	.	i
COc1ccc(CCNS(=O)(=O)c2c(C)[nH]c(C)c2C(=O)N2CCCCC2)cc1OC	4	-3	3	0	-6	-3	-9	i

Compound profiles, as listed above. Screens in order: Env fusion inh	MT1-MMP act inh	MT1-MMP act inh RFP	eIF4H FP inh	PABP FP inh	CSC inhib	UUG fidelity	Rce1 inh
Profile of C=CCNC(=O)C1COc2ccccc2O1 (stereo unspecified) : 4	0	0	0	4	-5	-23	i
Profile of O=S1(=O)C[C@H](N2CCOCC2)[C@@H](COCc2ccccc2)N1 : -11	2	5	.	.	.	-2	.
Profile of CCN(CC)S(=O)(=O)c1ccc(N2CC(C(=O)NCc3cccnc3)CC2=O)cc1 (stereo unspecified) : -11	1	4	0	-8	-3	-5	i
